High-throughput results from PubChem BioAssay.
NPYLR7 agonist – activates Aedes aegypti NPYLR7 receptor. HEK293T NPYLR7/Galpha15, GCaMP6s calcium fluorescence. activation, % at 10 µM. 0.15% of 270,000 active. AID 1259423; in the data active means activation above about 40%;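 further: 0% = vehicle and 100% = reference agonist at the receptor; some compounds past the cut are filed as inactive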
NPYLR7 agonist max-min – recorded beside NPYLR7 agonist, whose call it bears; activation, %; measured here: Max-Min RFU normalised activation; some inactives read as strong as hits;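 span of the calcium signal over five minutes; 0% = vehicle and 100% = native peptide agonist; compound fluorescence can raise it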
Active calls of the source: *.

SMILES	NPYLR7 agonist	NPYLR7 agonist max-min
CCO[C@H]1[C@H](NC(=O)CN2CCOC2=O)c2ccccc2C12CCNCC2	4	9
COc1ccc(C(=O)N2CCN(Cc3cc(=O)n4ccsc4n3)CC2)cc1Br	1	3
CC(C)[C@H](Nc1ccnc(-c2ccccc2)n1)C(=O)N1CCCC1	-16	-18
Cc1cc(=O)n2c(-c3ccc(NS(=O)(=O)c4ccc(C)s4)cc3)csc2n1	-6	-6
O=C(c1ccc(Cl)s1)N1CCC(n2cc(-c3ccccn3)nn2)CC1	-1	1
CC(=O)NC1CCN(c2ccc(C(=O)NCCCc3ccccn3)cn2)C1 (stereo not drawn)	5	4
CCOC(=O)C1(CC2CCCCO2)CCN(C(=O)Nc2ccc(Cl)cc2)CC1 (stereo not drawn)	10	8
CN(C)c1ccc(C(=O)N2CCN(c3ncccc3C(=O)NCc3cccs3)CC2)cc1	6	2
CC(Nc1cnn(-c2ccccc2)c(=O)c1Cl)c1ccc2c(c1)OCCO2 (stereo not drawn)	7	6
CCC1CCCCN1S(=O)(=O)c1ccc(C(=O)Nc2nnc(CSC)o2)cc1 (stereo not drawn)	-7	-9
O=C(c1ccc2c(c1)CCO2)N1CCOC(c2ccc(Cl)c(Cl)c2)C1 (stereo not drawn)	3	0
COc1ccc(NC(=O)c2cc(-c3ccccc3Cl)nc3ccccc23)c(OC)c1	1	-5
CCCC(C)NC(=O)Cn1c(=CC(=O)C(C)(C)C)sc(=Cc2ccc(C)s2)c1=O (stereo not drawn)	2	8
Cc1ccccc1-c1nc2scc(CCNS(=O)(=O)c3cc(Cl)ccc3Cl)n2n1	2	-1
O=C(Nc1cccc(-c2cccc(-c3ccc4c(c3)OCCO4)n2)c1)c1cccc(Cl)c1	4	2
Cc1ccc2nc(-c3ccccc3C)c(NC(=O)C3CCCCC3)n2c1	-4	3
CCc1c(C)nc(-c2cccc(F)c2)nc1N1CCN(C(=O)c2cccc3ccccc23)CC1	-3	1
CC1(C)[C@H]2CC[C@]1(CS(=O)(=O)N1CCN(Cc3ccc4c(c3)OCO4)CC1)C(=O)C2	-5	-12
CCCCC(CC)C(=O)Nc1ccc(C2SCC(=O)N2c2cccc(OC)c2)cc1 (stereo not drawn)	18	14
O=C1C[C@H]2CC[C@@H](CN1)N2C(=O)C1CCN(Cc2ccco2)CC1	22	13

Record cards (already shown). Screens in order: NPYLR7 agonist, NPYLR7 agonist max-min
`CCCCC(CC)C(=O)Nc1ccc(C2SCC(=O)N2c2cccc(OC)c2)cc1` (stereo not drawn) across the screens: 18, 14
`O=C(c1ccc2c(c1)CCO2)N1CCOC(c2ccc(Cl)c(Cl)c2)C1` (stereo not drawn) across the screens: 3, 0
`CCc1c(C)nc(-c2cccc(F)c2)nc1N1CCN(C(=O)c2cccc3ccccc23)CC1` across the screens: -3, 1
`Cc1cc(=O)n2c(-c3ccc(NS(=O)(=O)c4ccc(C)s4)cc3)csc2n1` across the screens: -6, -6
`CC(Nc1cnn(-c2ccccc2)c(=O)c1Cl)c1ccc2c(c1)OCCO2` (stereo not drawn) across the screens: 7, 6

Going on with the list:
SMILES	NPYLR7 agonist	NPYLR7 agonist max-min
Cc1nnc(N2CCCC2C(=O)N2CCSCC2)s1 (stereo not drawn)	5	2
O=c1ccc(=O)n(CN2CCOCC2)[nH]1	-1	7
CC=CCn1c(N2CCCCC2)nc2c1c(=O)[nH]c(=O)n2C	-6	-9
Cc1ccccc1NC(=O)CC1Cn2ncc(-c3ccccc3)c2NC1=O (stereo not drawn)	0	-1
CCc1ccc(-n2c(C(CC)N(CCC(C)C)C(=O)c3cc(OC)cc(OC)c3)nc3ccccc3c2=O)cc1 (stereo not drawn)	24	22
CCCN(CCC)c1nc(Cl)nc(NCCN2CCOCC2)n1	4	6
S=C(Nc1ccccc1)N1CCn2cccc2C1c1ccncc1 (stereo not drawn)	2	0
Cc1sc(NC(=O)c2ccc3c(c2)CC(C)N3S(C)(=O)=O)nc1-c1ccccc1 (stereo not drawn)	-4	-6
COc1ccc(-n2nnc3c(SCc4ccc(F)cc4)ncnc32)cc1	12	13
CC1(C(=O)NS(=O)(=O)c2ccc(C#N)cc2)CCN1C(=O)Cc1ccsc1 (stereo not drawn)	4	2
O=C(Cc1coc(-c2ccc(Cl)cc2)n1)Nc1cnccc1N1CCCCC1	1	-10
Clc1ccc(C2=Nc3nnnn3C(c3cccc4ccccc34)C2)cc1 (stereo not drawn)	3	13
CCc1nc2ccc(C(=O)NCc3ccc4c(c3)OCO4)cn2c1N(C)Cc1cccs1	6	-5
O=C(c1ccc(CSc2nnc(Cc3ccccc3)n2-c2ccccc2F)cc1)N1CCOCC1	23	26
COc1ccccc1CC(=O)NCc1cccc(C(N)=O)c1	5	2
COc1ccc(-c2nc(C)c(-c3ccc(SCC(=O)N4CCCCCC4)nn3)s2)cc1	4	6
Nc1ncnc2c1ncn2C1OC(COP(=O)(O)OP(=O)(O)OP(=O)(O)OP(=O)(O)OCC2OC(n3cnc4c(N)ncnc43)C(O)C2O)C(O)C1O (stereo not drawn)	20	-1
COc1cc(Nc2ncnc(N)c2[N+](=O)[O-])cc(OC)c1OC	1	-5
Cc1ccc(S(=O)(=O)NC2=NCN(Cc3cccnc3)CN2)cc1	-5	-6
Cc1cccc(NC(=O)CN2CCN(c3cccc(Cl)c3)C2=O)n1	-2	-6
O=C1OC(/C=C/c2cccc(Cl)c2Cl)=NC/1=C\c1ccc([N+](=O)[O-])cc1	-1	-5
Cn1/c(=N\N=C2/C(=O)Nc3ccc(F)cc32)sc2ccccc21	8	6
Nc1cc(-c2cccc(C(F)(F)F)c2)nn1-c1ccc(C(=O)NC23CC4CC(CC(C4)C2)C3)cc1	-7	-10
Cc1ccc(-n2c(=O)c3ccccc3n(CC(=O)NCc3ccccn3)c2=O)cc1C	-4	3
COc1ccc2oc(=O)c(-c3nnc(-c4ccccc4Br)o3)cc2c1	-8	-9
Cc1ccc(C(=O)Nc2ccccc2)cc1S(=O)(=O)N(CCO)CCO	-9	-11
CCOC(=O)C1(C)CCCCN1C(=O)c1ccncc1 (stereo not drawn)	0	-2
Cc1sc(CCN2CCCC2=O)nc1-c1ccc(NS(C)(=O)=O)cc1	4	4
COc1ccc(S(=O)(=O)NCC2CCCN(C(=O)CCc3cnn(C)c3)C2)cc1 (stereo not drawn)	15	10
CC(C)OC(=NC(=O)c1cccs1)N1CCCC1	2	5
CC(C)(C)n1nc2c(c1NC(=O)C1CCCCC1)CS(=O)(=O)C2	2	0
O=C(c1ccc(Cl)cc1)C1CCCN(C(=O)c2ccc(-n3cccn3)cc2)C1 (stereo not drawn)	2	-1
Cc1cc(C)n(-c2cc(N3CCN(C(=O)C(C)(C)C)CC3)ncn2)n1	-8	-14
CC(C)c1cc(C(=O)NCc2noc(-c3c(F)cccc3F)n2)no1	1	0
CCOC(=NC(=O)c1cccs1)N(C)C1CCN(C)CC1	2	7
CCOc1ccc2nc(N(CCCn3ccnc3)C(=O)c3cccs3)sc2c1	-11	-18
COc1ccc(NC(=O)CN(C)C(=O)CCCOc2ccccc2)cc1	-3	-5
Nn1c(SCc2ccccc2F)nncc1=O	-2	3
O=C1CC(C(=O)Nc2ccccc2F)C2=C(CCCC2=O)N1 (stereo not drawn)	1	45
COc1ccc(OC)c2c1CN(C(=O)Nc1ccccc1)CC2O (stereo not drawn)	16	14
CN(C)Cc1ccc(C2CCCN2CC2CCC(N)CC2)cc1 (stereo not drawn)	4	2
CC(=O)c1ccc(S(=O)(=O)N2CCC(C(=O)NC3CCC4CCCCC4C3)CC2)cc1 (stereo not drawn)	3	2
COc1ccc(Cl)cc1N1CCN(C(=O)Nc2ccc(C)cc2)C(C)C1=O (stereo not drawn)	-2	3
Oc1ccc(C2=NN=CC2Oc2ccccc2)c(O)c1O (stereo not drawn)	6	2
CS(=O)(=O)NC1=NCN(CCC2=CCCCC2)CN1	1	1
FC(F)n1nnn(-c2ccccc2)c1=S	0	-2
CCN(Cc1ccncc1)C(=S)Nc1ccc(OC)cc1	-4	-10
CCc1nc(C)c(C(=O)N2CCC3(CCCN(Cc4cccc(OC)c4)C3)C2)o1 (stereo not drawn)	22	4
CCOC(CNC(=O)c1c(O)nc2ccccn2c1=O)OCC	6	9
NC(=O)NC(=O)Cn1ncc(Cl)c(Cl)c1=O	-2	-6

Carrying on:
SMILES	NPYLR7 agonist	NPYLR7 agonist max-min
Cc1cc(CSc2nnc(-c3ccc4c(c3)OCO4)o2)no1	21	14
CCCS(=O)(=O)N1CCCC(C(=O)Nc2ccccc2-n2ncc3c(=O)[nH]cnc32)C1 (stereo not drawn)	2	-1
Cc1cccc(NC(=O)CSc2nccn3nc(-c4ccccc4)cc23)c1	1	-3
O=C(Nc1nnc(-c2ccc3c(c2)OCO3)s1)C1CCCN1C(=O)NC1CCCCC1 (stereo not drawn)	-8	-4
CN(C)c1ccc(N2C(=O)CSC2c2cccc(NC(=O)c3ccco3)c2)cc1 (stereo not drawn)	0	15
Cc1ccccc1-n1c(SCc2cccc(F)c2F)nnc1-c1ccccc1Cl	6	10
Cc1cc(C)n(C2CCN(Cc3cnc4c(-c5ccccc5)cnn4c3)C2)n1 (stereo not drawn)	-4	-7
Cn1ncc2c1C1(C)CCC2C1(C)C (stereo not drawn)	4	8
COc1ccc(CN(Cc2ccco2)C(=O)NC2CCCCC2)cc1OS(=O)(=O)c1cccc(C(F)(F)F)c1	-2	13
O=C(C[C@@H]1O[C@H](CNC(=O)N2CCOCC2)[C@@H](O)[C@H]1O)Nc1ccccc1	-4	-14
O=C(Nc1ccc(Cl)cc1)N1CCCC(c2nnc(Cc3ccc(F)cc3)o2)C1 (stereo not drawn)	-6	-2
Cc1ccccc1NC(=S)NC(=O)CC1SC(=O)N(c2ccccc2)C1=O (stereo not drawn)	-4	-11
CCc1cc(CN(C)C(=O)c2nc3ccccc3[nH]c2=O)on1	10	8
CNC(=S)NCCSCc1cnc[nH]1	7	8
COc1cc(F)c(CN2CCC=C(CNC(C)=O)C2)cc1OC	7	3
CC1Cc2ccccc2N1C(=O)CCCn1nc(-c2ccco2)ccc1=O (stereo not drawn)	1	2
CCOC(=O)Cc1csc(NC(=O)c2csc(-c3cc4ccccc4[nH]3)n2)n1	0	-3
CC1CCCN(c2nc3c(c(=O)[nH]c(=O)n3C)n2CCCSc2nc3ccccc3o2)C1 (stereo not drawn)	-9	-12
CC(=O)Nc1cnn(-c2ccc(C(=O)N3CCC(c4nc5ccccc5o4)CC3)cc2)c1	1	-4
C#CCOCC(O)CN(CC=C)CC1CC(c2ccc(Cl)cc2)=NO1 (stereo not drawn)	0	8

5 structures already listed, ordered by number of heavy atoms, lowest first:
SMILES	NPYLR7 agonist	NPYLR7 agonist max-min
CNC(=S)NCCSCc1cnc[nH]1	7	8
CCc1cc(CN(C)C(=O)c2nc3ccccc3[nH]c2=O)on1	10	8
C#CCOCC(O)CN(CC=C)CC1CC(c2ccc(Cl)cc2)=NO1 (stereo not drawn)	0	8
CC1Cc2ccccc2N1C(=O)CCCn1nc(-c2ccco2)ccc1=O (stereo not drawn)	1	2
CC(=O)Nc1cnn(-c2ccc(C(=O)N3CCC(c4nc5ccccc5o4)CC3)cc2)c1	1	-4

(listing goes on)
SMILES	NPYLR7 agonist	NPYLR7 agonist max-min
c1cc(-c2ccc3[nH]ncc3c2)n2nccc2c1	17	7
Cc1nnsc1CN(C)Cc1cccc(C(=O)Nc2cccc(F)c2)c1	47	35
Cn1ncc2c(N3CCN(CC(=O)Nc4ccc(Cl)cc4F)CC3)ncnc21	-2	-3
O=C(CC1CCCCC1)Nc1c2c(nn1-c1ccc([N+](=O)[O-])cc1)CS(=O)(=O)C2	-2	-4
CCCC(CCO)CNC(=O)c1nn(-c2ccc(F)c(F)c2)c2c1CCC2 (stereo not drawn)	0	-2
COc1ccc(CCNC(=O)c2ccc(Cl)cc2NS(=O)(=O)c2ccc(OC)cc2OC)cc1	1	-3
C=CCN1CC(OC)CN(S(=O)(=O)c2ccccc2)CC1=O (stereo not drawn)	1	10
COc1ccccc1CN(Cc1cccc(C(F)(F)F)c1)Cc1nc(C(=O)N2CCN(C(C)=O)CC2)co1	19	11
CCCc1cc(N2CCC(Cc3cccc(C(N)=O)c3)C2)nc(C)n1 (stereo not drawn)	4	5
C=CCOCC(O)CN(Cc1ccco1)Cc1c(-c2ccccc2)nn(C)c1Oc1ccccc1F (stereo not drawn)	-5	0

Compounds listed so far that have bromine, in the order listed:
SMILES	NPYLR7 agonist	NPYLR7 agonist max-min
COc1ccc(C(=O)N2CCN(Cc3cc(=O)n4ccsc4n3)CC2)cc1Br	1	3
COc1ccc2oc(=O)c(-c3nnc(-c4ccccc4Br)o3)cc2c1	-8	-9

Part of the list above, set out differently:
| structure | NPYLR7 agonist | NPYLR7 agonist max-min |
| --- | --- | --- |
| CCCC(CCO)CNC(=O)c1nn(-c2ccc(F)c(F)c2)c2c1CCC2 (stereo not drawn) | 0 | -2 |
| COc1ccc(CCNC(=O)c2ccc(Cl)cc2NS(=O)(=O)c2ccc(OC)cc2OC)cc1 | 1 | -3 |

Further entries follow:
SMILES	NPYLR7 agonist	NPYLR7 agonist max-min
COC(=O)CCc1c(C)nn(-c2ccc(C(=O)NCC3CCCCC3)cc2)c1C	17	14
CCOC(=O)C1CCCN(CC(=O)N2N=C(c3ccccc3F)CC2c2ccccc2OC)C1 (stereo not drawn)	5	3
ON=Cc1cn(-c2ccccc2)nc1-c1ccc(Cl)cc1	-5	-7
Cc1c(C2CC2)nc2ccc(Br)cc2c1C(=O)NCC#N	0	1
Cc1ccc2c(CC(=O)Nc3ccc(F)c(Cl)c3)cc(=O)oc2c1	19	14

Some of the compounds tested; the hit share may differ from the screen's.
